VCAM-1 inhibition – inhibitors of TNFa-induced VCAM-1 surface display, cell-based, plate reader, pooled HUVEC, TNFa stimulus (AID 454); 10,000 tested, 0.2% active; inhibition, % at 5 µM; HUVEC TNFa-induced VCAM-1 surface immunofluorescence, plate reader; numbers were filed only for top-ranked candidate wells;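 active means compound among top-ranked inhibitors of TNF-induced VCAM-1 adhesion protein staining, with the hit upheld by image or statistical review; inactive means the rest, including hits rejected on review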;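 further: 0% = TNFa with vehicle and 100% = cells without TNFa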
FPRL1 ligand – human FPRL1 ligand, with FPR counter-screen; inhibition, %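 (tested at 6.7 µM)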; FPRL1-expressing cells, fluorescent ligand binding inhibition, flow cytometry; 24,000 tested, 0.3% active;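 further: 0% = buffer alone and 100% = receptor blocker peptide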
Target sequence (P25090 whole entry, looked up): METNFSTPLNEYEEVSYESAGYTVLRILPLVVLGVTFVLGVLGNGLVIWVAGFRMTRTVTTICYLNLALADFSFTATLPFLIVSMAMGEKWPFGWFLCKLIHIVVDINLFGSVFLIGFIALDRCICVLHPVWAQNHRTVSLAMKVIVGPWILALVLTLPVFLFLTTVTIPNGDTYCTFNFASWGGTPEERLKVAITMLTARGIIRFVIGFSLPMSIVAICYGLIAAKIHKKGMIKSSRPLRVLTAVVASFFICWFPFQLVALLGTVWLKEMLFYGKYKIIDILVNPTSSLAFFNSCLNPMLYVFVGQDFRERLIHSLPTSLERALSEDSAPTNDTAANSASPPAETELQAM
FPR binder – binds the human formylpeptide receptor FPR; P21462; FPR-expressing cells, fluorescent ligand binding, flow cytometry; inhibition, %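 (tested at 6.7 µM)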; 24,000 tested, 0.74% active;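 further: 0% = buffer wells and 100% = receptor blocker peptide wells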
Target sequence (P21462 whole entry, looked up): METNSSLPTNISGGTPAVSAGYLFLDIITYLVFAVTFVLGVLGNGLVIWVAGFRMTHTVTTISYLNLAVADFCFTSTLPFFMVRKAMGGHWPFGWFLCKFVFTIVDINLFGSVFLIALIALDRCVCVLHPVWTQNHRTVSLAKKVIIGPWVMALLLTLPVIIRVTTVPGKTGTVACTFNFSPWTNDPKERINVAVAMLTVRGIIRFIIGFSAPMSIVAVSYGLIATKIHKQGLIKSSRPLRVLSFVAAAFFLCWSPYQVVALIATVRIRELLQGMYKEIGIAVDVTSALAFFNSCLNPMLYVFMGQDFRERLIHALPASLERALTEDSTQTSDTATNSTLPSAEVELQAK
VCAM-1 down imaging – suppression of endothelial VCAM-1 upregulation – imaging, high-content imaging, pooled HUVEC, TNFa stimulus (AID 456); HUVEC TNFa-induced VCAM-1 surface expression, immunofluorescence imaging; numbers were filed only for top-ranked candidate wells; inhibition, % at 5 µM; hits with a dose series show IC50 in µM; 10,000 tested, 0.2% active;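 active means top tenth filtered wells with inhibition above zero that passed visual or statistical confirmation; inactive means the rest, including hits rejected on review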;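 further: 0% = stimulated vehicle wells and 100% = unstimulated cells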
VCAM-1 up imaging – enhancers of VCAM-1 display on endothelial cells, imaging, high-content imaging, pooled HUVEC, TNFa stimulus (AID 457). Pooled HUVEC, TNFa-induced VCAM-1 immunofluorescence imaging; hits of this screen are not shown here. calls only. 10,000 tested, 0.2% active;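 active means a top-ranked rise in VCAM-1 staining upheld on image or statistical review; inactive means the rest, including candidates rejected on review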;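 further: compounds tested at 5 µM in the well; cells exposed to compound for 24 hours before fixing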
An asterisk follows results filed as active; i = inactive; / = no result given.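 How the source made its calls, unless noted: active means mean above 30%; inconclusive means self-fluorescent; inactive means the rest.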

Abbreviations – A = VCAM-1 inhibition; B = FPRL1 ligand; C = FPR binder; D = VCAM-1 down imaging; E = VCAM-1 up imaging
COc1ccc(CNC(=O)C2CCN(S(=O)(=O)c3cccc4cccnc34)CC2)cc1
  A = / | B = 1.2 | C = 3.3 | D = / | E = /
CCCc1nnc2n1N=C(c1ccc(-c3cc(Cl)ccc3Cl)o1)CS2
  A = i | B = -4.6 | C = 2.6 | D = i | E = i
CC(=O)c1c(C)[nH]c(C(=O)NCCC2=CCCCC2)c1C
  A = / | B = 7.1 | C = -1.5 | D = / | E = /
CCN1CCN(c2cc(=O)n(-c3cc(Cl)ccc3C)c(=O)[nH]2)CC1
  A = / | B = -4.0 | C = 1.4 | D = / | E = /
O=C(Nc1cccnc1)c1cccc(NC(=O)c2ccco2)c1
  A = i | B = 0.9 | C = 6.0 | D = i | E = i
O=C(CCNC(=O)c1ccc(Br)o1)NCc1ccccc1Cl
  A = / | B = -2.7 | C = 0.7 | D = / | E = /
Cn1c(C(=O)Nc2ccc3c(c2)OCO3)cc2c(=O)n(C)c3ccccc3c21
  A = i | B = -2.7 | C = 0.2 | D = i | E = i
CN1C(=O)CSc2ccc(NC(=O)NCc3ccco3)cc21
  A = / | B = -3.4 | C = -4.4 | D = / | E = /
O=C(c1ccccc1)c1c[nH]c2cc3c(cc2c1=O)OCCO3
  A = / | B = -1.2 | C = -1.2 | D = / | E = /
COc1cccc(C(=O)N2CCN(c3ncccn3)CC2)c1
  A = / | B = -2.5 | C = 1.6 | D = / | E = /
O=C1CN(Cc2ccccc2)C(=NCc2ccco2)S1
  A = i | B = 3.0 | C = 2.1 | D = i | E = i
O=C(Nc1ccccc1)N(CCCN1CCOCC1)Cc1cc2cc3c(cc2[nH]c1=O)OCCO3
  A = i | B = 0.2 | C = -9.3 | D = i | E = i
Cc1ccc(S(=O)(=O)N[C@@H](C)C(=O)N2CCC(C(=O)N3CCC[C@H]3C(=O)O)CC2)cc1
  A = i | B = -1.0 | C = -5.1 | D = i | E = i
COc1cccc(CNc2ccc3c(c2)ncn3C(C)C)c1OC
  A = / | B = 1.3 | C = 3.7 | D = / | E = /
O=C(O)c1oc2ccccc2c1-n1cccc1
  A = i | B = -7.8 | C = -6.1 | D = i | E = i
Cc1nn(-c2ccccc2)c2[nH]c(C(F)(F)F)cc(=O)c12
  A = i | B = 0.7 | C = -3.1 | D = i | E = i
Cc1c(C(=O)N2CCc3ccccc3C2)sc2nc(-c3ccccc3)cn12
  A = / | B = 0.4 | C = -1.6 | D = / | E = /
CCOC(=O)C1CCCN(c2c(N3CCN(c4ccccn4)CC3)c(=O)c2=O)C1 (stereo unspecified)
  A = i | B = -2.4 | C = 3.5 | D = i | E = i
CCc1cc(=O)oc2cc(C)cc(O)c12
  A = / | B = 10.8 | C = -2.0 | D = / | E = /
CC(=O)Oc1ccc2oc(=O)c3c(c2c1)CCCN3C(=O)CN1CCN(c2ncccn2)CC1
  A = / | B = 1.1 | C = 5.4 | D = / | E = /
Cc1csc(NC(=O)C2CCCN(S(=O)(=O)c3ccc(Br)s3)C2)n1 (stereo unspecified)
  A = / | B = 7.3 | C = 14.4 | D = / | E = /
COc1ccc(S(=O)(=O)N2CCN(CC(=O)Nc3cccc(F)c3)CC2)cc1
  A = / | B = 1.5 | C = 4.5 | D = / | E = /
COCCN1C(=O)c2ccccc2C(C(=O)NCCN(C)C)C1c1ccc(F)cc1 (stereo unspecified)
  A = / | B = 2.7 | C = 5.2 | D = / | E = /
CCOC(=O)C1=C(O)C(=O)N(c2ccc(S(N)(=O)=O)cc2)C1c1ccccc1 (stereo unspecified)
  A = i | B = -4.3 | C = -2.0 | D = i | E = i
CC(C)C(=O)NC(C)C(c1cccs1)N1CCOCC1 (stereo unspecified)
  A = / | B = 17.9 | C = 5.0 | D = / | E = /
Cc1ccccc1-c1nc(CN2CCC(C(=O)NCc3ccco3)CC2)c(C)o1
  A = / | B = -1.7 | C = -7.1 | D = / | E = /
Cc1cc(C)n(C(=O)CCCCCC(=O)n2nc(C)cc2C)n1
  A = i | B = -1.6 | C = 1.5 | D = i | E = i
O=C(CN1CC(=O)Oc2ccccc21)NCc1ccco1
  A = / | B = -4.8 | C = 5.3 | D = / | E = /
O=C(CNS(=O)(=O)c1cccc2nsnc12)NCc1ccc(Cl)cc1
  A = / | B = 1.9 | C = -7.3 | D = / | E = /
O=C(Cn1ncc2c1-c1ccccc1OC2)Nc1ccc(Cl)cn1
  A = i | B = -5.2 | C = -3.3 | D = i | E = i
COc1cccc(C(=O)N(CN2CCCC2=O)c2cccc(Cl)c2)c1OC
  A = / | B = -3.3 | C = -4.5 | D = / | E = /
C=CCn1c(NC(C)c2cc(Cl)ccc2O)nc2ccccc21 (stereo unspecified)
  A = / | B = 2.8 | C = 3.8 | D = / | E = /
Cc1cc2ccccc2c(=O)n1CC(=O)N1CCN(c2cccc(Cl)c2)CC1
  A = / | B = 11.3 | C = -6.7 | D = / | E = /
COc1cc(C2C(C#N)=C(N)OC3=C2C(=O)CCC3)ccc1OC(=O)N1CCOCC1 (stereo unspecified)
  A = i | B = -2.5 | C = 3.6 | D = i | E = i
O=C(CN1CCC(c2nc3ccccc3s2)CC1)NCc1cccs1
  A = i | B = -3.2 | C = -4.9 | D = i | E = i
COc1ccccc1S(=O)(=O)Cc1ccc(C(=O)NCCN(C)C)o1
  A = / | B = -0.9 | C = 2.6 | D = / | E = /
O=C(OCC(=O)c1ccccc1Br)c1ccccn1
  A = i | B = -1.4 | C = 4.9 | D = i | E = i
COC(=O)c1ccc(CSc2nc3ccccc3s2)o1
  A = i | B = 2.2 | C = -3.0 | D = i | E = i
O=C(NCCCN1CCCCCC1)c1ccc2c(c1)NC(=O)C(N1CCOCC1)S2 (stereo unspecified)
  A = / | B = 4.9 | C = -3.7 | D = / | E = /
COc1cccc(-n2nnc3c(=O)n(CC(=O)N4CCCc5ccccc54)cnc32)c1
  A = / | B = -0.5 | C = -1.4 | D = / | E = /
O=C(O)c1ccc(CSc2nnc(COc3ccc(Cl)cc3Cl)o2)cc1
  A = / | B = -11.4 | C = -5.6 | D = / | E = /
CC1=C(C#N)C(=O)NC(C)(C)C1
  A = i | B = 8.0 | C = 4.1 | D = i | E = i
Cc1cccc(OCc2nc(C#N)c(NCCN(C)C)o2)c1
  A = i | B = -3.6 | C = -4.2 | D = i | E = i
Nc1cc(-c2nn[nH]n2)ccc1F
  A = / | B = 0.6 | C = -1.4 | D = / | E = /
O=C1CCc2cc(S(=O)(=O)NCCC(=O)N3CCN(c4cccc(Cl)c4)CC3)ccc2N1
  A = / | B = 3.5 | C = -2.3 | D = / | E = /
CCC1(C)Cc2c(sc3nc(SCC(=O)O)[nH]c(=O)c23)CO1 (stereo unspecified)
  A = i | B = 1.3 | C = -15.2 | D = i | E = i
Cc1ccccc1NC(=O)C1CCCN1S(=O)(=O)c1cccc2cccnc12 (stereo unspecified)
  A = / | B = 0.9 | C = -2.4 | D = / | E = /
CS(=O)(=O)c1nc(-c2cccs2)cc(C(F)(F)F)n1
  A = / | B = -1.1 | C = -14.3 | D = / | E = /
COc1ccc(CCNC(=O)c2cc(-c3cc(C)c(C)cc3O)n[nH]2)cc1OC
  A = i | B = -0.2 | C = 4.4 | D = i | E = i
O=C(CN1CCN(C(=O)c2ccco2)CC1)Nc1cc(C(F)(F)F)ccc1Cl
  A = / | B = 6.9 | C = -1.5 | D = / | E = /

Ordered by number of heavy atoms (rising): 4 of the compounds above.
Abbreviations – A = VCAM-1 inhibition; B = FPRL1 ligand; C = FPR binder; D = VCAM-1 down imaging; E = VCAM-1 up imaging
Nc1cc(-c2nn[nH]n2)ccc1F
  A = / | B = 0.6 | C = -1.4 | D = / | E = /
Cc1cccc(OCc2nc(C#N)c(NCCN(C)C)o2)c1
  A = i | B = -3.6 | C = -4.2 | D = i | E = i
O=C(O)c1ccc(CSc2nnc(COc3ccc(Cl)cc3Cl)o2)cc1
  A = / | B = -11.4 | C = -5.6 | D = / | E = /
Cc1ccccc1NC(=O)C1CCCN1S(=O)(=O)c1cccc2cccnc12 (stereo unspecified)
  A = / | B = 0.9 | C = -2.4 | D = / | E = /

Other compounds
Abbreviations – A = VCAM-1 inhibition; B = FPRL1 ligand; C = FPR binder; D = VCAM-1 down imaging; E = VCAM-1 up imaging
CC1CCN(S(=O)(=O)c2cn(CC(=O)N3CCN(C)CC3)c(=O)c3ccccc23)CC1
  A = i | B = 3.4 | C = -3.7 | D = i | E = i
CCCC(O)(CCN1CCOCC1)c1ccc(Br)cc1 (stereo unspecified)
  A = / | B = 0.7 | C = 1.5 | D = / | E = /
COc1cccc(OCc2nnc(SCC(=O)OCc3ccccc3)o2)c1
  A = i | B = 2.3 | C = 9.8 | D = i | E = i
CCNc1nc(N2CCCCC2)nc(-n2nnc(C(=O)OCC)c2C)n1
  A = i | B = 1.1 | C = 3.6 | D = i | E = i
Cc1cccc(NC2SC(=O)N(c3ccccc3)C2=O)c1 (stereo unspecified)
  A = i | B = -3.1 | C = 1.2 | D = i | E = i
CCC1CCCCN1CCCNC(=O)CC1Oc2ccc(C)cc2NC1=O (stereo unspecified)
  A = i | B = 6.7 | C = 7.7 | D = i | E = i
COC(=O)Cn1c(CCC(=O)O)ccc1-c1ccccc1
  A = / | B = -4.8 | C = 5.4 | D = / | E = /
CCOC(=O)N1CCN(C(=O)CCS(=O)(=O)c2ccc(Br)s2)CC1
  A = / | B = -3.7 | C = -7.8 | D = / | E = /
CC(C)(C)n1ncc2c(=O)n(CC(=O)NCc3ccccc3Cl)cnc21
  A = / | B = -0.9 | C = -1.6 | D = / | E = /
CCCCOc1cc(=O)[nH]c(=O)[nH]1
  A = i | B = -3.1 | C = -0.3 | D = i | E = i
CCOC(=O)c1[nH]c2ccc(C)cc2c1NC(=O)CN1CCCCC1
  A = i | B = 0.6 | C = 9.9 | D = i | E = i
CC1CCN(C(=O)c2cc(-c3ccccc3O)on2)CC1
  A = / | B = -15.9 | C = -1.1 | D = / | E = /
CC(C)Oc1ccc(C2C(C(=O)c3ccco3)=C(O)C(=O)N2Cc2cccnc2)cc1 (stereo unspecified)
  A = / | B = -2.2 | C = 16.5 | D = / | E = /
CCN1C(=O)CC(c2ccco2)Sc2ccccc21 (stereo unspecified)
  A = / | B = -3.9 | C = 7.9 | D = / | E = /
Cc1nc2ccc(C(=O)c3ccccc3)cc2[nH]1
  A = i | B = -1.2 | C = 3.3 | D = i | E = i
Cc1ccc(NC(=O)c2nc[nH]c2C(=O)N2CCCCC2)c(C(=O)c2ccccc2)c1
  A = / | B = 0.5 | C = -3.6 | D = / | E = /
Cc1cn2c(-c3ccc(Cl)cc3)nnc2s1
  A = i | B = 1.3 | C = -1.4 | D = i | E = i
COc1ccccc1-c1cc(C(=O)N2CCN(c3ccccc3OC)CC2)no1
  A = / | B = 0.3 | C = 1.3 | D = / | E = /
CCOC(=O)c1cc(S(=O)(=O)N2CCN(C(=O)OCC)CC2)cn1C
  A = / | B = -5.3 | C = -3.1 | D = / | E = /
CCN(CC)C(=O)Oc1ccc2c(=O)c(-c3ccc(OC)cc3)c(C)oc2c1
  A = / | B = -7.9 | C = -3.2 | D = / | E = /
Cc1noc(NS(=O)(=O)c2ccc(N)cc2)c1C
  A = i | B = 9.4 | C = 3.6 | D = i | E = i
CN(C)c1oc(-c2ccccc2F)nc1C#N
  A = i | B = 2.2 | C = -1.4 | D = i | E = i
Cc1nn(C(=O)c2ccccc2)c2c1C(=O)CC(C)(C)C2
  A = i | B = 0.9 | C = 11.9 | D = i | E = i
COC(=O)c1ccc(CSc2ncnc3c2nnn3-c2ccc(F)cc2)o1
  A = / | B = -0.1 | C = -3.3 | D = / | E = /
CCOC(=O)C1C(=O)CC(C)(O)C(C(=O)OCC)C1c1ccc(Br)o1 (stereo unspecified)
  A = / | B = 3.4 | C = 4.5 | D = / | E = /
O=C(Cn1cnc2c(cnn2-c2ccc(F)cc2)c1=O)NCc1ccco1
  A = / | B = 4.3 | C = -0.4 | D = / | E = /
O=C(NCCCN1CCN(c2ccccc2F)CC1)C1CCN(S(=O)(=O)N2CCOCC2)CC1
  A = / | B = -5.0 | C = 0.2 | D = / | E = /
CS(=O)(=O)N(CC(=O)O)c1cccc(Cl)c1
  A = i | B = 5.5 | C = -6.5 | D = i | E = i
Cc1cc(C)c(S(=O)(=O)N(C)CC(N)=O)c(C)c1
  A = i | B = 11.4 | C = 2.1 | D = i | E = i
COc1ccc(C(=O)OC(COc2ccccc2)Cn2ccnc2)cc1 (stereo unspecified)
  A = i | B = 10.9 | C = -3.9 | D = i | E = i
CC(C)C(NS(=O)(=O)c1ccc2c3c(cccc13)C(=O)N2)C(=O)O (stereo unspecified)
  A = / | B = -2.2 | C = -3.3 | D = / | E = /
O=C(Nc1ccc(Cl)cn1)c1cccnc1
  A = i | B = 10.0 | C = -2.3 | D = i | E = i
CCCCOc1ccc(OCCCN2CCOCC2)cc1
  A = i | B = -4.5 | C = -2.2 | D = i | E = i

Screening data deposited in PubChem by several laboratories.

Some of the compounds tested; rates above refer to the full screens.
